Bioassay records from PubChem BioAssay.
VDR inh – blocks the human vitamin D receptor; P11473; VDR-SRC2-3 peptide fluorescence polarization, 2 h; Potency, µM, for the others: max response, negative = inhibition, hits mostly inhibitors; 400,000 tested, 0.93% active; AID 504847; active = well fitted inhibition curve with a large enough effect; inconclusive = small, poorly fitted or top-dose-only effect, or another doubt; inactive = no such curve, though single readings can be large or run the other way; note: series mostly up to about 120 µM
Target sequence (P11473 whole entry, looked up): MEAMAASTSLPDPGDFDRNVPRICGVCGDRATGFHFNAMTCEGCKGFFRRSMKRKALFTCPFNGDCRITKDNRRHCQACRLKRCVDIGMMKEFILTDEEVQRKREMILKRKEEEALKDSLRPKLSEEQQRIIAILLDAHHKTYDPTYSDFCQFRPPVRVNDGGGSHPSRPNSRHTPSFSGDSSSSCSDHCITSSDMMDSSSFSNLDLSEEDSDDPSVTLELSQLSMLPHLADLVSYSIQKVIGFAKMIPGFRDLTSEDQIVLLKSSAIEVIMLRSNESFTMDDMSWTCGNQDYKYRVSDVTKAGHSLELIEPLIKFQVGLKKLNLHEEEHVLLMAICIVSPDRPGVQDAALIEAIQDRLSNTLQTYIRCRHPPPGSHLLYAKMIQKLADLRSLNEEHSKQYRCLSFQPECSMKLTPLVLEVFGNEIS
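Reagent solutions, kept cold and dark, are dispensed first; compounds are then pinned in at 23 nl, plates briefly spun, and incubated 2 h at ambient temperature. Inhibition of VDR–SRC2-3 peptide binding is read by fluorescence polarization.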
An asterisk follows results filed as active; ? = inconclusive; & = joins results of further samples. % is set by controls: 0 for no effect and ±100 for the full control effect; potency is the fitted concentration of half-maximal effect. This is a subset, so the mix of outcomes need not match the whole.

Structure	VDR inh
COc1cccc(C2C(C(=O)Nc3ccc(C)cc3C)=C(C)Nc3c(C(=O)Nc4cccc(C)c4)cnn32)c1OC (stereo not given)	8.6%
Cc1cccc(C(=O)NC(=S)Nc2ccc(S(=O)(=O)N3CCN(C)CC3)cc2)c1	-5.0%
COc1cccc(N2C(=O)CC(N3CCN(S(=O)(=O)c4ccccc4)CC3)C2=O)c1 (stereo not given)	1.5%
O=C(NCCC1=CCCCC1)Nc1ccc2nsnc2c1	-2.4%
Oc1c(C=C2N=c3ccccc3=N2)sc(=S)n1-c1ccc2ccccc2c1	6.9%
Cn1nnnc1Sc1ncnc2scc(-c3cccc(Br)c3)c12	?
CCCCn1c(SCC(=O)c2ccccc2)nc2c(sc3ccccc32)c1=O	2.1%
Cc1nonc1OCCN1CCN(c2ccccc2[N+](=O)[O-])CC1	1.1%
CC(C)(C)c1cc(CSC(=S)NC2CCS(=O)(=O)C2)c(Br)c(C(C)(C)C)c1 (stereo not given)	6.6%
O=C(COC(=O)Cc1ccccc1F)Nc1cccc(F)c1	-11.3%
CCCNC(=O)Cn1c(-c2ccc(F)cc2)cc(C(=O)OCC)c1C	-9.0%
CCC(=O)Nc1cc(-c2cc3ccccc3oc2=O)ccc1OC	-11.4%
Cc1cc(=O)oc2cc(OC(=O)C3CCN(C(=O)c4ccc(F)cc4)CC3)ccc12	-7.5%
COC(=O)c1c(NC(=O)CCCC(=O)O)sc2c1CCC2	1.3%
COC(=O)c1ccc(CSc2nc(-c3ccco3)cc(C(F)(F)F)n2)o1	4.1%

Structure	VDR inh
CSCCC(NC(=O)c1ccccc1)C(=O)NCC(C)(C)N1CCOCC1 (stereo not given)	-13.2%
COc1ccc(N2C(=O)CC(NNC(=O)c3ccco3)C2=O)cc1 (stereo not given)	-0.3%
C=CCC(C(=O)NC(C)c1ccccc1)C(=O)NC(C)c1ccccc1 (stereo not given)	-1.0%
Cc1ccc(Nc2nc(N)nc(CCl)n2)c(C)c1	-8.2%
N/C(=N\OC(=O)c1ccc(Cl)cc1Cl)c1ccncc1	-9.5%
Cc1ccc(C(=O)O/N=C2\CC3CCC2(C)C3(C)C)cc1 (stereo not given)	-3.8%
COc1ccc(CNC(=O)c2cc(-c3cccs3)nc3ccccc23)c(OC)c1	0.6%
COc1cccc(N2CCN(C3CC(=O)N(c4cccc(Cl)c4)C3=O)CC2)c1 (stereo not given)	-13.4%
O=C(Cc1ccccc1[N+](=O)[O-])N1CCc2ccccc2C1	-3.9%
OC(COc1ccc(F)cc1Cl)CN1CCc2ccccc2C1 (stereo not given)	-6.7%
Cc1cc(=O)cc(C)n1-c1ccccc1N1CCOCC1	-13.0%
C=CCNC(=O)C1CCN(S(C)(=O)=O)CC1	0.0%
Cc1cccc(NC(=O)c2ccc(S(=O)(=O)N(C)C)cc2)n1	-10.3%
O=S(=O)(NCc1csc(-c2cccnc2)n1)c1ccc(Cl)s1	-23.6%
COc1ccc(NC(=O)COC(=O)CCc2ccc(S(=O)(=O)N3CCOCC3)cc2)c(OC)c1	-7.6%

Structure	VDR inh
CCOc1ccc(/C=c2\sc3nc(-c4ccco4)nn3c2=O)cc1OCC	-15.1%
O=C(c1cnn(C(=O)CN2CCCC2=O)c1)c1ccccc1O	-25.2%
Cc1ccc(Cn2c(=N)c(C(=O)NCC3CCCO3)cc3c(=O)n4cccc(C)c4nc32)cc1 (stereo not given)	5.4%
Cc1cc(C)c2c(CN3CCN(Cc4ccc5c(c4)OCO5)CC3)cc(=O)oc2c1	2.0%
CC1(C)CC(=O)C(/C=N/c2ncccc2C(=O)O)=C(O)C1	-10.2%
O=C(Nc1ccccc1C(=O)NCC1CCCO1)c1ccccc1 (stereo not given)	0.7%
CCCCNC(=S)NCC(c1ccccc1)c1c[nH]c2ccccc12 (stereo not given)	-0.6%
O=C(NCC(=O)N1CCCC1C(=O)O)OC1CCCCC1 (stereo not given)	-4.5%
Cc1cccc(-n2c(C)cc(/C=N\NC(=O)c3ccco3)c2C)c1	-12.6%
CCN(CC)S(=O)(=O)c1ccc2c(c1)nc(CCC(=O)Nc1ccc3c(c1)OCO3)n2CC	-12.6%
Cc1cccc([C@H]2[C@@H]3C=CCC[C@@]3(C)C(=O)N2Cc2ccccc2)c1	?
CCOc1ccc(N(CC(=O)Nc2cccnc2)S(C)(=O)=O)cc1	13.1%
Cc1cc(C(=O)NC2CCCc3c2cnn3-c2ccc(C)c(C)c2)no1 (stereo not given)	-2.3%
Cc1cccc(NC(=O)CCCn2cc([N+](=O)[O-])cn2)n1	-0.9%
CCc1n[nH]c(=S)n1/N=C/c1c(C)nn(-c2ccccc2)c1Cl	-12.4%

Structure	VDR inh
Cc1[nH]c(=O)[nH]c(=O)c1S(=O)(=O)NCCOC12CC3CC(CC(C3)C1)C2	-6.2%
O=C(/C=C/c1ccc(Br)o1)NC(c1ccccc1)c1ccccc1	?
O=C(COC(=O)c1cn(-c2ccccc2)nc1-c1ccccc1)Nc1ncc(Cl)cc1Cl	21.0%
Nc1nn(-c2cccc(F)n2)cc1-c1ccccc1	-11.8%
CCC1CCCCN1C(=O)c1nn(-c2ccc(C)cc2)c(=O)c2c1c1ccccc1n2C (stereo not given)	-8.9%
CCOc1ccc(NC2SC(=O)N(Cc3ccccc3)C2=O)cc1 (stereo not given)	-15.5%
COc1ccc(N2CCN(C(=S)Nc3ccc(F)cc3)CC2)cc1	9.7%
CC(=O)Nc1ccc2c(c1)ncn2-c1ccc(C)cc1	-11.6%
COc1ccc(Cn2c(O)c(C=Nc3ccc(O)cc3)c3ccccc3c2=O)cc1	0.6%
O=C(NCCn1c(-c2ccncc2)nc2ccccc21)[C@H]1CCCN1c1nc(CN2CCCCC2)cs1	2.2%
Cc1csc(SCC(=O)Nc2ccccc2[N+](=O)[O-])n1	-9.6%
O=c1[nH]c(SCc2ccc(F)cc2)nc2c1CCCC2	13.6%
COc1ccc(CCN2CC(C(=O)Nc3cc(F)ccc3F)CC2=O)cc1OC (stereo not given)	-10.8%
O=C(Nc1cccc(Cl)c1)c1ccc(S(=O)(=O)NCC2CCCO2)cc1 (stereo not given)	-18.1%
O=c1c2cc(Cl)cc(Cl)c2nc2n1CCC2	3.6%

structure,VDR inh
Cc1cc(C)cc(OCC(=O)Nc2ccc3c4c(cccc24)CC3)c1,-11.4%
COc1ccc(CC(C)N2CCN(c3cccc(C(F)(F)F)c3)CC2)cc1OC (stereo not given),-8.4%
COc1ccc(N(C(=O)CNC(=O)c2ccco2)C(C(=O)NC2CCCC2)c2cccnc2)cc1 (stereo not given),-8.6%
O=c1c(-c2ccccc2)coc2cc(O)ccc12,-24.1%
CCC1CCCCN1CCCNC(=O)c1ccc2c(c1)N(Cc1ccc(F)cc1)C(=O)c1ccccc1S2=O (stereo not given),-1.5%
Cc1ccc(CNC(=O)c2cc3cc(C)ccc3n2C)cc1,-1.4%
Cc1cccc(Cl)c1OCCCCn1ccnc1,23.0%
S=C(NCCCNC(=S)Nc1ccccc1)Nc1ccccc1,-20.6%
CCc1ccc2[nH]c3nc(SCC(=O)NCC4CCCO4)nnc3c2c1 (stereo not given),-12.7%
COC(=O)CCC(=O)N1CCCC(CO)(Cc2ccccc2F)C1 (stereo not given),-25.5%
CCN(CC)C(=O)CSc1nc2sc(C)c(C)c2c(=O)[nH]1,-0.4%
Cc1nnc(SCC(=O)N2CCC(Cc3ccccc3)CC2)n(N)c1=O,-14.8%

3 compounds out of the list above, sorted by the number in VDR inh, ascending:
structure,VDR inh
O=c1c(-c2ccccc2)coc2cc(O)ccc12,-24.1%
Cc1cc(C)cc(OCC(=O)Nc2ccc3c4c(cccc24)CC3)c1,-11.4%
Cc1cccc(Cl)c1OCCCCn1ccnc1,23.0%

Later entries
structure,VDR inh
CCOC(=O)c1ccccc1NC(=O)COC(=O)CC(C)(C)CC1=NS(=O)(=O)c2ccccc2N1,16.9%
CCc1nc(Cl)c(C#N)c2c1CSC(C)(C)C2,0.9%
Cc1cc(C)c2c(-n3cccc3)c(C(=O)NNS(=O)(=O)c3ccc(F)cc3)sc2n1,7.8%
CCOC(=O)C1CCCN(C(=O)C2CCN(S(=O)(=O)CC)CC2)C1 (stereo not given),5.1%
COc1ccc2c3c(cccc13)C(=O)N(O)C2=O,-8.3%
O=C(c1ccc(-c2ccccc2)cc1)N1CCN(c2ccccc2F)CC1,-0.1%
Fc1cccc(Cl)c1Cn1ncc2ccccc21,12.1%
O=C(N/N=C/c1ccccc1Cl)c1[nH]c2ccc(Br)cc2c1-c1ccccc1,-10.7%
Clc1ccc2nc(-c3ccc(Br)o3)c(Nc3ccc4c(c3)OCCO4)n2c1,-15.1%
CNCc1c(C)nn(-c2ccccc2)c1C,14.3%
COc1ccc(N2CCN(C(=O)c3ccccc3NC(=O)C3=C(C)OCCS3)CC2)cc1,-8.7%
COc1ccc(CNC(=S)N/N=C/c2ccc(OC)c(OC)c2)cc1,18.9%

Structural class, the compounds so far with a COOH group (3)
structure,VDR inh
COC(=O)c1c(NC(=O)CCCC(=O)O)sc2c1CCC2,1.3%
CC1(C)CC(=O)C(/C=N/c2ncccc2C(=O)O)=C(O)C1,-10.2%
O=C(NCC(=O)N1CCCC1C(=O)O)OC1CCCCC1 (stereo not given),-4.5%

Other compounds follow:
structure,VDR inh
Cc1cn(C(=O)c2ccccc2)c(=S)n1-c1ccc(Br)cc1,-14.7%
Cc1ccc(NS(=O)(=O)c2c(C)[nH]c(C)c2C(=O)N2CCCCC2)cc1Cl,-12.7%
C#CCOCCOCCOCCNc1nc(N2CCN(C(=O)[C@H](C(C)C)n3cc(CCO)nn3)CC2)nc(N2CCN(C(=O)[C@H]([C@@H](C)CC)n3cc(CCC(=O)O)nn3)CC2)n1,-8.0%
COc1ccc(Nc2nc(-c3ccccc3)nc3ccccc23)cc1,-4.2%
COc1cc(OC)cc(-n2nnnc2SCC(=O)NCc2ccc3c(c2)OCO3)c1,0.1%
COc1ccccc1C(CNC(=O)c1ccco1)N1CCCC1 (stereo not given),-15.9%
O=C(Nc1ccccc1)c1cc2ccccc2c(=O)s1,22.1%
Nc1nc(Cn2nnc(-c3ccccc3F)n2)nc(N2CCOCC2)n1,-4.1%
O=C(CCCC(=O)N(CC(=O)NC1CCCCC1)Cc1ccc2c(c1)OCO2)Nc1ccccn1,15.0%
Cc1ccc(NC(=O)CC(=O)c2ccccc2)cc1C,2.1%
CCN1C(=O)/C(=C/c2cnn(CC)c2C)SC1=S,-22.9%
COc1ccc2[nH]c(C)c(C(=O)CN(C)C)c2c1,-1.8%

A few values from the entries so far:
Under VDR inh, `O=C(CCCC(=O)N(CC(=O)NC1CCCCC1)Cc1ccc2c(c1)OCO2)Nc1ccccn1` is entered as 15.0%
Under VDR inh, `Cc1cccc(NC(=O)CCCn2cc([N+](=O)[O-])cn2)n1` is entered as -0.9%
Under VDR inh, `CC1(C)CC(=O)C(/C=N/c2ncccc2C(=O)O)=C(O)C1` is entered as -10.2%

(more compounds)
structure,VDR inh
COc1ccc(C(=O)Nc2ccc(N3CCCCC3)cc2)cc1Br,6.8%
COc1ccc(NS(=O)(=O)c2ccc(-n3nnc4ccccc43)c([N+](=O)[O-])c2)cc1,8.9%
CCN(c1ncnc2c1cnn2-c1cc(Cl)ccc1C)C1CCCCC1,14.5%
Cc1ccc(C(C#N)N2CCOCC2)cc1 (stereo not given),27.4%
COc1ccc(CN2CC(C(=O)N3CC(C)CC(C)C3)CC2=O)cc1 (stereo not given),-9.0%
COc1ccc(C(=O)N2CCCC(c3nc(-c4cc(OC)c(OC)c(OC)c4)no3)C2)cc1 (stereo not given),6.2%
CC(=Nc1ccccc1N)c1c(C)cc(=O)n(O)c1O,9.5%&3.4%
C#Cc1cccc(NC(=O)Cc2cccs2)c1,2.9%
O=C(COc1ccc(F)cc1)N1c2ccccc2CCc2ccccc21,-15.3%
CCOC(=O)c1ccc(NC(=O)NC2CC3CCC(C2)N3C(=S)NC)cc1 (stereo not given),-10.5%
COc1cc(C(F)(F)F)nc2ccc(C#CCOC(=O)Nc3ccccc3)cc12,-0.6%
O=C(O)CCSc1ccc2ccccc2n1,0.9%&-10.2%

structure,VDR inh
CCOc1ccccc1N1CC(c2nc3ccccc3n2Cc2c(C)cc(C)cc2C)CC1=O (stereo not given),15.5%
O=C(/C=C/c1ccc(S(=O)(=O)N2CCOCC2)cc1)Nc1ccc(F)c(F)c1F,-10.5%
CCOC(=O)C1CCCN(C(=O)c2cc3nc(-c4cccc(OC)c4)cc(C(F)(F)F)n3n2)C1 (stereo not given),-6.2%
CCc1ccc(S(=O)(=O)Nc2ccc(Cl)cn2)cc1,-15.8%
CCC(=O)NNc1nc2c(C)cc(C)cc2s1,5.2%
CCN(CC(=O)Nc1ccc(NC(C)=O)cc1)C(=O)CCN1C(=O)C2CC=CCC2C1=O (stereo not given),0.3%
O=S(=O)(Nc1ccc2nc(-c3cccc(Cl)c3)oc2c1)c1ccccc1,0.6%
COc1ccc(CCNC(=O)c2ccc3nc[nH]c3c2)cc1,5.3%
CC1CCN(C2=C(NS(=O)(=O)c3ccc(Br)cc3)C(=O)c3ccccc3C2=O)CC1,-24.9%
O=c1c2oc3ccccc3c2ncn1Cc1ccc(Br)cc1,-0.4%
Cc1ccc(CNC(=O)CCc2nnc3ccc(NCCCN4CCCC4=O)nn23)cc1,4.3%
CS(=O)(=O)NCc1nnc(SCc2ccccc2C(F)(F)F)o1,-1.0%

structure,VDR inh
N#Cc1c2c(c(NCCOCCO)n3c1nc1ccccc13)CCCC2,9.6%
CC(=O)Nc1cccc(-n2nnc(SCC(=O)c3ccccc3)n2)c1,-3.8%
O=C(NCCCOc1cccc(CN2CCCCC2)c1)c1ccc(Cl)c(Cl)c1,8.4%
O=C(NCc1cccs1)c1cc2c(s1)CCCC2,2.1%
O=[N+]([O-])c1cc(C(F)(F)F)ccc1NCCCCNS(=O)(=O)c1ccc(Cl)cc1,-9.2%
Cc1oc(-c2ccc(C(=O)NCCN(C)C)cc2)nc1CS(=O)(=O)c1ccccc1,15.1%
CC(C)c1ccccc1NC(=O)COC(=O)C1(C)CC1(Cl)Cl (stereo not given),-9.9%
